Compound activity from PubChem BioAssay.
NOMO-1 viab – STK33 inhibitor candidate reducing NOMO-1 cell viability | NOMO-1 AML viability, CellTiter-Glo luminescence, 72 h | inhibition, % (no concentration beside the values) | actives 7.5% (n = 37,000) | AID 2330;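 active means most replicates above 80%; inconclusive means exactly half above 80%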;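 further: wells of about 30 µL received 25 nL stock; 0% = median of vehicle wells and 100% = reference inhibitor level; the first replicate is given; inactives centre near 10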
* marks the source's active call; other numbers are inactive results; ? = inconclusive.

compound	NOMO-1 viab
CS(=O)(=O)N(CC(=O)Nc1ccccc1C(=O)N1CCOCC1)c1ccc(F)c(Cl)c1	-5.5
Cc1ccc(S(=O)(=O)Nc2ccc3c(c2)C(=O)N([C@@H](C)CO)C[C@H](C)[C@@H](CN(C)C(=O)Nc2ccc4c(c2)OCO4)O3)cc1	-1.9
COC(=O)c1ccccc1NC(=O)C1CCCN(S(=O)(=O)c2ccccc2)C1 (configuration not stated)	44.9
CCC1(C)Cc2c(sc3nnn(CC(=O)N(c4ccccc4)c4ccccc4)c(=O)c23)CO1 (configuration not stated)	45.6
C[C@@H]1CN([C@H](C)CO)C(=O)c2cc(NS(=O)(=O)c3cn(C)cn3)ccc2O[C@H]1CN(C)Cc1ccc(C(=O)Nc2ccccc2N)cc1	-17.4
C[C@@H]1CCCCO[C@@H](CN(C)C(=O)NC2CCCCC2)[C@@H](C)CN([C@H](C)CO)C(=O)c2cc(NC(=O)C3CCCCC3)ccc2O1	15.7
C[C@@H]1O[C@@H](O[C@H]2[C@H](O[C@H]3[C@H](O)[C@@H](C(=O)O)O[C@@H](O[C@H]4CC[C@@]5(C)C(CC[C@]6(C)C5CC[C@]57OC[C@@]8(CCC(C)(C)CC85)[C@H](O)C[C@]76C)C4(C)C)[C@@H]3O[C@@H]3O[C@H](CO)[C@@H](O[C@@H]4OC[C@@H](O)[C@H](O)[C@H]4O)[C@H](O)[C@H]3O)O[C@H](CO)[C@H](O)[C@@H]2O)[C@H](O)[C@H](O)[C@H]1O (some centres not stated)	58.3
O=C(Nc1sc2c(c1C(=O)NCc1ccco1)CCC2)c1sc2ccccc2c1Cl	21.7
C[C@H]1CN([C@@H](C)CO)C(=O)c2cccc(NC(=O)C3CC3)c2O[C@H]1CN(C)S(=O)(=O)c1ccc(Cl)cc1	-8.1
COc1ccc(NC(=O)N(C)C[C@@H]2Oc3c(NS(=O)(=O)c4ccc(OC)cc4)cccc3C(=O)N([C@@H](C)CO)C[C@H]2C)cc1	22.4
C[C@@H]1CN([C@@H](C)CO)C(=O)c2cccc(NC(=O)Nc3ccc(F)cc3)c2O[C@H]1CN(C)C(=O)NC1CCCCC1	17.6
O=C(NCC1CCCO1)c1ccc(NC(=O)c2cc(-n3cnnc3)ccc2Cl)cc1 (configuration not stated)	-3.6
C[C@H]1CN([C@@H](C)CO)C(=O)c2cccc(NC(=O)C3CCOCC3)c2O[C@H]1CN(C)S(C)(=O)=O	-25.1
Cc1cc(C(=O)N(c2ccccc2)C(C)C2CC2)c(Cl)cc1Cl (configuration not stated)	133.5*
Cc1ccc(S(=O)(=O)N(C)C[C@H]2Oc3ccc(N(C)C)cc3CC(=O)N([C@@H](C)CO)C[C@@H]2C)cc1	13.7
Cc1ccc(S(=O)(=O)Nc2cccc3c2O[C@@H](CN(C)C)[C@@H](C)CN([C@H](C)CO)C3=O)cc1	-13.2
Cc1ccc(S(=O)(=O)Nc2cccc3c2O[C@@H](CN(C)C(=O)NC2CCCCC2)[C@H](C)CN([C@@H](C)CO)C3=O)cc1	0.8
C[C@@H]1CN([C@@H](C)CO)C(=O)c2cccc(NS(=O)(=O)c3ccc(F)cc3)c2O[C@H]1CN(C)Cc1ccc(Cl)c(Cl)c1	9.6
C[C@@H]1CCCCO[C@@H](CN(C)C(=O)NC2CCCCC2)[C@@H](C)CN([C@H](C)CO)C(=O)c2cc(NS(=O)(=O)c3ccccc3)ccc2O1	4.8
O=C(CC(NC1CCCCC1)C(=O)O)Nc1cccc(Cl)c1 (configuration not stated)	10.9

Overlap with the part before: four compounds, then new ones.
compound	NOMO-1 viab
Cc1ccc(S(=O)(=O)Nc2cccc3c2O[C@@H](CN(C)C(=O)NC2CCCCC2)[C@H](C)CN([C@@H](C)CO)C3=O)cc1	0.8
C[C@@H]1CN([C@@H](C)CO)C(=O)c2cccc(NS(=O)(=O)c3ccc(F)cc3)c2O[C@H]1CN(C)Cc1ccc(Cl)c(Cl)c1	9.6
C[C@@H]1CCCCO[C@@H](CN(C)C(=O)NC2CCCCC2)[C@@H](C)CN([C@H](C)CO)C(=O)c2cc(NS(=O)(=O)c3ccccc3)ccc2O1	4.8
O=C(CC(NC1CCCCC1)C(=O)O)Nc1cccc(Cl)c1 (configuration not stated)	10.9
CC(C)NC(=O)Nc1ccc2c(c1)C(=O)N([C@@H](C)CO)C[C@@H](C)[C@@H](CN(C)C)O2	0.5
COc1ccc(CN(C)C[C@H]2Oc3c(NC(=O)c4ccncc4)cccc3C(=O)N([C@H](C)CO)C[C@@H]2C)cc1	13.7
CCN(CC)c1ncc2c(=S)[nH]c(=S)[nH]c2n1	11.2
COc1cc(O)c(C(=O)CCc2ccccc2)c(O)c1Cc1ccccc1O	?
CC(=O)c1cccc(NC(=O)COc2ccccc2C(=O)Nc2ccccc2C#N)c1	71.2
C[C@H](CO)N1C[C@H](C)[C@H](CN(C)S(C)(=O)=O)Oc2c(NS(=O)(=O)c3cccs3)cccc2C1=O	-15.5
C[C@H](CO)N1C[C@H](C)[C@H](CN(C)Cc2ccc(-c3ccccc3)cc2)Oc2c(NC(=O)Nc3ccc4c(c3)OCO4)cccc2C1=O	120.1*
NC(=O)c1c(NC(=O)c2cnn3c(C(F)(F)F)cc(-c4cccs4)nc23)sc2c1CCCC2	39.3
Clc1cccc(OCCN2CCOCC2)c1	17.6
C[C@@H]1CN([C@H](C)CO)C(=O)Cc2cc(NS(C)(=O)=O)ccc2O[C@H]1CN(C)C(=O)NC1CCCCC1	2.8
C[C@H](CO)N1C[C@H](C)[C@H](CN(C)Cc2ccc(C(F)(F)F)cc2)Oc2ccc(NS(=O)(=O)c3ccc(F)cc3)cc2CC1=O	103.5*
Cc1ccc(S(=O)(=O)Nc2ccc3c(c2)CC(=O)N([C@H](C)CO)C[C@H](C)[C@H](CN(C)C(=O)Nc2cccc4ccccc24)O3)cc1	24.8
Cc1nnc(SCc2nc(N)nc(Nc3ccc4ccccc4c3)n2)s1	40.0
COc1ccc(NC(=O)Nc2cccc3c2O[C@H](CN(C)C(=O)Nc2cccc4ccccc24)[C@H](C)CN([C@H](C)CO)C3=O)cc1	52.2
COc1cc(C2c3c(oc4ccc(Cl)cc4c3=O)C(=O)N2Cc2ccco2)cc(Br)c1O (configuration not stated)	42.8
COc1ccc(NC(=O)C(=O)NCC(=O)Nc2ccc(C)cc2)cc1	18.0
COC(=O)c1ccccc1NC(=O)COc1cc(C)c(Br)cc1C	6.5
Cc1ccc(N(C(C)C(=O)Nc2ccccc2Br)S(C)(=O)=O)cc1C (configuration not stated)	20.4
COc1ccccc1OCC(=O)Nc1cccc(N(C)S(C)(=O)=O)c1	8.4
COc1ccc(OC)c(S(=O)(=O)N(C)CC(=O)N2CCN(c3ccccc3F)CC2)c1	-3.9
C[C@@H]1CN([C@H](C)CO)C(=O)c2cc(NS(=O)(=O)c3ccc(F)cc3)ccc2O[C@H]1CN(C)Cc1ccncc1	6.3
C[C@H]1CN([C@@H](C)CO)C(=O)Cc2cc(NS(=O)(=O)c3cn(C)cn3)ccc2O[C@@H]1CN(C)C(=O)Nc1cccc2ccccc12	18.4
COC(=O)CNC(=O)c1cn(-c2ccccc2)nc1-c1cccc(Br)c1	71.8
CNC[C@H]1Oc2c(NS(=O)(=O)c3c(C)noc3C)cccc2C(=O)N([C@H](C)CO)C[C@H]1C	3.6
C[C@H](CO)N1C[C@H](C)[C@H](CN(C)C(=O)Nc2ccc3c(c2)OCO3)Oc2ccc(NS(=O)(=O)c3cccs3)cc2C1=O	-13.8
Cc1noc(C)c1S(=O)(=O)Nc1cccc2c1O[C@@H](CN(C)C(=O)Nc1cccc3ccccc13)[C@@H](C)CN([C@H](C)CO)C2=O	13.5
C[C@H]1CN([C@@H](C)CO)C(=O)Cc2cc(NC(=O)C3CCCCC3)ccc2O[C@H]1CN(C)Cc1ccc2c(c1)OCO2	-16.1
Cc1ccc(S(=O)(=O)N(C)C[C@H]2Oc3ccc(NC(=O)CCCN(C)C)cc3C(=O)N([C@H](C)CO)C[C@H]2C)cc1	-5.4
CNC(=O)c1ccccc1S(=O)c1cccc2cccc(C(=O)O)c12 (configuration not stated)	4.6
COc1ccccc1-n1nnnc1SCC(=O)Nc1ccccc1C	-6.3
Cc1noc(C)c1NC(=O)Nc1ccc2c(c1)C(=O)N([C@H](C)CO)C[C@@H](C)[C@H](CN(C)Cc1ccncc1)O2	6.5
COc1ccc(S(=O)(=O)N(C)C[C@H]2Oc3c(NC(=O)Nc4c(C)noc4C)cccc3C(=O)N([C@H](C)CO)C[C@@H]2C)cc1	-4.8
C[C@@H]1CN([C@H](C)CO)C(=O)Cc2cc(NS(C)(=O)=O)ccc2O[C@@H]1CN(C)Cc1ccc(C(=O)O)cc1	32.6
O=C(CSc1nnc(-c2ccco2)o1)Nc1cccc(Cl)c1	-17.3
C[C@@H]1CN([C@@H](C)CO)C(=O)c2cc(NC(=O)Nc3cccc4ccccc34)ccc2O[C@@H]1CN(C)S(=O)(=O)c1cccs1	21.7
CCOc1ccc(CCC(=O)O)cc1	4.4
CCOC(=O)CSc1nc(Nc2ccccc2)c2cnc(N3CCOCC3)nc2n1	111.7*
Cc1ccc2nc(SCC(=O)Nc3ccc4c(c3)OCCO4)[nH]c2c1	-1.7
C[C@H]1CN([C@@H](C)CO)C(=O)c2cccc(N(C)C)c2O[C@H]1CN(C)C(=O)NC1CCCCC1	6.3
COc1ccc(S(=O)(=O)Nc2cccc3c2O[C@H](CN(C)C(=O)Nc2ccc(F)cc2)[C@H](C)CN([C@@H](C)CO)C3=O)cc1	17.2
Cc1ccc(S(=O)(=O)N(C)C[C@H]2Oc3ccc(NC(=O)CCC(F)(F)F)cc3CC(=O)N([C@H](C)CO)C[C@H]2C)cc1	-1.0
Cc1cc(C)c2oc(-c3ccc(C)c(NC(=O)COc4ccc(Cl)cc4)c3)nc2c1	20.5
COc1ccc(NC(=O)N(C)C[C@H]2Oc3ccc(NC(=O)CCCCCC(=O)Nc4ccccc4N)cc3C(=O)N([C@H](C)CO)C[C@@H]2C)cc1	?
COc1ccc(NC(=O)CS(=O)(=O)c2ccc3ccccc3c2)cc1	28.2
CCc1nc(SCC(=O)Nc2c(Cl)cccc2Cl)c(C#N)c(C(F)(F)F)c1C	-0.5
Cc1ccc2nsnc2c1S(=O)(=O)NC(C)c1ccccc1 (configuration not stated)	9.6
C[C@@H]1CN([C@@H](C)CO)C(=O)c2cc(NC(=O)CCC(F)(F)F)ccc2O[C@@H]1CN(C)S(=O)(=O)c1ccc(F)cc1	24.5
Cc1ccc(S(=O)(=O)N(C)C[C@@H]2Oc3ccc(NC(=O)CCC(F)(F)F)cc3CC(=O)N([C@H](C)CO)C[C@H]2C)cc1	-10.9
C[C@H]1CN([C@@H](C)CO)C(=O)c2cccc(NC(=O)c3ccc(-c4nccs4)cc3)c2O[C@@H]1CN(C)Cc1ccc(-c2ccccc2)cc1	?
C[C@H](CO)N1C[C@H](C)[C@H](CN(C)C(=O)Nc2cccc3ccccc23)Oc2c(NC(=O)c3ccc(-c4nccs4)cc3)cccc2C1=O	-7.2

Additional structures follow:
compound	NOMO-1 viab
N#Cc1c(NC(=O)Cn2c(=O)oc3ccccc32)sc2c1CCC2	3.8
C[C@@H]1CN([C@H](C)CO)C(=O)c2cccc(NS(=O)(=O)c3cccs3)c2O[C@H]1CN(C)S(=O)(=O)c1ccccc1	-1.3
CC(C)NC(=O)N(C)C[C@@H]1Oc2ccc(NC(=O)Cc3ccccc3)cc2C(=O)N([C@@H](C)CO)C[C@@H]1C	15.2
C[C@H]1CN([C@@H](C)CO)C(=O)Cc2cc(NC(=O)Nc3ccc(C(F)(F)F)cc3)ccc2O[C@@H]1CN(C)C(=O)Nc1ccc(C(F)(F)F)cc1	11.6
Cc1noc(C)c1NC(=O)Nc1ccc2c(c1)C(=O)N([C@@H](C)CO)C[C@@H](C)[C@H](CN(C)S(=O)(=O)c1ccc(F)cc1)O2	14.9
C[C@@H]1CN([C@H](C)CO)C(=O)c2cccc(NC(=O)CCCCCC(=O)Nc3ccccc3N)c2O[C@H]1CN(C)C(=O)Nc1cccc2ccccc12	23.5
COc1ccc(S(=O)(=O)N(C)C[C@H]2Oc3ccc(NS(=O)(=O)c4ccc(Cl)cc4)cc3C(=O)N([C@@H](C)CO)C[C@H]2C)cc1	28.0
COc1ccc(S(=O)(=O)N(C)C[C@H]2Oc3c(NC(=O)c4ccncc4)cccc3C(=O)N([C@H](C)CO)C[C@H]2C)cc1	11.7
O=C(NCCNC(=O)c1ccccc1[N+](=O)[O-])c1ccc(F)cc1	7.3
C[C@@H]1CN([C@H](C)CO)C(=O)c2cccc(NS(=O)(=O)c3cccs3)c2O[C@@H]1CN(C)C(=O)NC1CCCCC1	20.9

3 structures from above, ordered by count of non-hydrogen atoms, descending.
compound	NOMO-1 viab
Cc1noc(C)c1NC(=O)Nc1ccc2c(c1)C(=O)N([C@@H](C)CO)C[C@@H](C)[C@H](CN(C)S(=O)(=O)c1ccc(F)cc1)O2	14.9
COc1ccc(S(=O)(=O)N(C)C[C@H]2Oc3c(NC(=O)c4ccncc4)cccc3C(=O)N([C@H](C)CO)C[C@H]2C)cc1	11.7
O=C(NCCNC(=O)c1ccccc1[N+](=O)[O-])c1ccc(F)cc1	7.3

Following part
compound	NOMO-1 viab
N=C1SCC(=O)N1c1nccs1	16.0
Cc1noc(C)c1NC(=O)N(C)C[C@@H]1OCCCC[C@@H](C)Oc2ccc(NC(=O)c3ccncc3)cc2C(=O)N([C@H](C)CO)C[C@@H]1C	-6.0
COc1ccc(NC(=O)N(C)C[C@H]2Oc3ccc(NC(=O)CCCCCC(=O)Nc4ccccc4N)cc3C(=O)N([C@@H](C)CO)C[C@@H]2C)cc1	6.0
CCn1c(SCC(=O)N2c3ccccc3Sc3ccccc32)nnc1-c1ccco1	-5.3
C[C@@H]1CN([C@H](C)CO)C(=O)Cc2cc(NC(=O)c3ccncc3)ccc2O[C@H]1CN(C)CC1CCCCC1	11.8
Nc1nnc(SCC(=O)Nc2ccccc2C(=O)c2ccccc2)s1	13.4
O=C(Nc1cccc(S(=O)(=O)N2CCCC2)c1)c1cc(-n2cnnc2)ccc1Cl	-3.8

Not all compounds are listed; count on the stated rates, not on these rows.
